Screening data: PubChem, National Center for Advancing Translational Sciences (NCATS)
VDR inhibitor = vitamin D3 receptor (human) inhibition. VDR-SRC2-3 peptide fluorescence polarization, 2 h. P11473. hit rate 0.93% among 400,000. Potency, µM, inactives show max response, negative = inhibition, actives largely listed as inhibitors; active = well fitted inhibition curve with a large enough effect; inconclusive = small, poorly fitted or top-dose-only effect, or another doubt; inactive = no such curve, though single readings can be large or run the other way; note: series mostly up to about 120 µM
Target sequence (P11473 whole entry, looked up): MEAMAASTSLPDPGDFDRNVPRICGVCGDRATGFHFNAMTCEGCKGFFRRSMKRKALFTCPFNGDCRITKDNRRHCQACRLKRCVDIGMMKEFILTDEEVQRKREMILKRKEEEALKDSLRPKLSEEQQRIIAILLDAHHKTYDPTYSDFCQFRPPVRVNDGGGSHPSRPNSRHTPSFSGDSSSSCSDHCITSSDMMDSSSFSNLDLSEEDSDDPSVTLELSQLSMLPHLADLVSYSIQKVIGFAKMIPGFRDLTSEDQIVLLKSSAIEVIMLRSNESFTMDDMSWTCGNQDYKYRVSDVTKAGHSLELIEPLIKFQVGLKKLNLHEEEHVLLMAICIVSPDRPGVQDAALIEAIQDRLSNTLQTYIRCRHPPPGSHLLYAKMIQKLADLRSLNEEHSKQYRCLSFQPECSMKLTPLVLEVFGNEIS
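VDR–SRC2-3 interaction, FP format. Cmpds 23 nl via pintool, brief spin, 2 h ambient incubation.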
Active calls of the source: *; ? = inconclusive. % is set by controls: 0 for no effect and ±100 for the full control effect; potency is the fitted concentration of half-maximal effect. The list is partial; the hit share may differ from the screen's.

VDR inhibitor | Structure
-3% | COc1ccccc1CCNC(=O)c1cccc(S(=O)(=O)N2CCc3ccccc3C2)c1
-11% | CCOC(=O)c1c(C2CC2)csc1NC(C)=O
6% | CC(C)(C)OC(=O)N[C@H](Cc1ccccc1)C(=O)N1CCC[C@@H]1C(=O)O
-3% | C=CCNC(=O)C1CCC(C(=O)NCC=C)CC1 (stereo not drawn)
8% | CN(C)CCNS(=O)(=O)c1ccc2c3c(cccc13)C(=O)N2
10% | COc1ccc(C2CC(c3ccccc3)=NN2C(=O)CSc2nnnn2-c2cccc(C)c2)cc1 (stereo not drawn)
14% | COc1cccc(C(C(=O)NC2CCCCC2)N(CCN2CCOCC2)C(=O)C2COc3ccccc3O2)c1 (stereo not drawn)
-14% | CC1C(=O)CCCCCCCCCC2C1(N1CCOCC1)CS2(=O)=O (stereo not drawn)
6% | N#Cc1ccc(/C=C2\CCCCn3c2nc2cc(C(=O)O)ccc2c3=O)cc1
-12% | CC(=O)Oc1ccc2c(=O)oc(-c3ccccc3C)nc2c1
6% | CC[C@H](C)[C@H](NC(=O)[C@H](CC(N)=O)NC(=O)[C@H](CCCCN)NC(=O)[C@H](Cc1ccccc1)NC(=O)[C@H](Cc1ccccc1)NC(=O)[C@H](Cc1cnc[nH]1)NC(=O)[C@@H](N)C(C)C)C(=O)N[C@H](C(=O)N[C@H](C(=O)N1CCC[C@H]1C(=O)N[C@@H](CCCN=C(N)N)C(=O)N[C@H](C(=O)N1CCC[C@H]1C(=O)O)[C@@H](C)O)[C@@H](C)O)C(C)C
-1% | CC(C)(C)c1nc(SCC(=O)NNC(=O)c2ccccc2)c2ccccc2n1
-13% | COc1cc(OC)c(C2C(C#N)=C(C)NC(C)=C2C#N)c(C(=O)O)c1
-12% | CC1(C)CC(=O)c2cc(-c3nc(-c4ccc(Cl)cc4)cs3)c(=O)n(-c3ccc(Cl)cc3)c2C1
-6% | CC1=CC(=O)C(C(C)C)=C/C1=N/OC(=O)c1cccc([N+](=O)[O-])c1
0% | COc1ccccc1C1C2=C(N=C3SCC(=O)N31)c1ccccc1CC2 (stereo not drawn)
9% | O=C1CC(c2ccsc2)c2cc3c(cc2N1)OCCO3 (stereo not drawn)
-16% | CCN1CCN(S(=O)(=O)c2ccc(Cl)c(C(=O)N(C)Cc3cccc(Cl)c3Cl)c2)CC1
-3% | O=C(COc1ccc2c(c1)CCC2)N1CCN(c2cccc(C(F)(F)F)c2)CC1
12% | O=C(Cc1c(Cl)cccc1Cl)OCC(=O)N1CCOCC1
4% | CN=CC1=C(O)CC(C)(C)CC1=O
8% | CCc1ccc(NC(=O)C2CCN(C(=O)N3CCOc4ccccc43)CC2)cc1
? | Cc1ccc(N2C(=O)[C@@H]3[C@H](C2=O)C2CCCN2[C@@H]3C(=O)c2ccccc2)cc1 (stereo partly drawn)
0% | CC(C)Oc1ccc(CCC(=O)N/N=C/c2ccc3c(c2)OCO3)cc1
9% | COc1ccc(C)cc1NC(=O)Cn1c(=O)cc(C)c2c(C)nn(C)c21
24% | COc1cc(NC(=O)c2c3c(nc4ccccc24)CCC3)cc(OC)c1
7% | O=S(=O)(c1ccc(F)cc1)N1CCC(Oc2ccc(-n3cnnn3)cc2)CC1
-17% | O=C(O)c1cc(S(=O)(=O)N(Cc2ccccc2)c2ccc(Cl)cc2)ccc1Cl
13% | CC1(C)Cc2c(sc3nc4n(c(=O)c23)CCC4)CO1
-3% | O=C(CSc1nc(-c2cccs2)nc2cc(=O)[nH]n12)Nc1ccccc1
-5% | CCC(C)NC(=O)CSc1nnc(-c2cc(-c3ccc(C)cc3)nc3ccccc23)n1N (stereo not drawn)
-5% | Cc1c(C(=O)NC2=NCCS2)cccc1[N+](=O)[O-]
-9% | CCc1cc2cc(C)ccc2nc1SCC(=O)N1CCN(C(=O)c2ccco2)CC1
? | COc1ccc(CCNC(=O)c2noc(C(C)C)c2[N+](=O)[O-])cc1OC
4% | CCOC(=O)C1(C)/C(=N/Nc2ccc(S(N)(=O)=O)cc2)C(=O)C(=O)N1c1ccccc1 (stereo not drawn)
11% | COCCNc1ncnc2onc(-c3ccc(F)cc3)c12
-2% | Cc1ccc(NC(=O)CCC(=O)N/N=C/c2ccccc2O)cc1
-3% | Cc1csc(NC(=O)c2cc(=O)[nH]c3ccc(S(=O)(=O)N4CCOCC4)cc23)n1
-6% | O=C1/C(=C/c2cccnc2)SC(=S)N1c1ccc(O)cc1
-9% | COCCNc1ncnc2ccc(-c3cccnc3)cc12
1% | O=C1CSC(c2ccccc2[N+](=O)[O-])N1CCc1ccccc1 (stereo not drawn)
1% | Cc1ccc(NC(=O)CN(Cc2ccco2)Cc2ccccc2O)cc1C
6% | C/C(=N/NC(=O)c1nnn(-c2nonc2N)c1COc1ccccc1)c1ccccc1
8% | Cc1ccc(C)c(NC(=S)N2CCCCCC2)c1
-8% | COc1ccc(N2CCN(c3ncnc4sc(C(=O)NCC5CCCO5)c(C)c34)CC2)cc1 (stereo not drawn)
-4% | COC(C/C=C/[C@@H](O)[C@@H](C)OCc1ccccc1)OC
-2% | C=C(C)CNC(=S)NNC(=O)c1ccc(Br)cc1
-8% | COc1ccccc1CC(=O)NCCc1c[nH]c2ccccc12
-7% | CCOc1ccc(OCCC(=O)N(CC)CC(=O)NCc2cccs2)cc1
-2% | Cc1ccc(NC(=O)c2ccc(=O)n(CC(=O)Nc3cc(C)cc(C)c3)n2)cc1

The listing continues:
VDR inhibitor | Structure
11% | Cc1ccc(CNC(=O)Cn2cc3c(n2)-c2c(oc(C(=O)N4CCOCC4)c2C)CC3)cc1
-4% | COc1ccc(C2Nc3ccccc3NC3=C2C(=O)CC(C)(C)C3)cc1 (stereo not drawn)
-4% | COc1ccccc1OCc1ccc(C(=O)NN)cc1
6% | Cc1cc(C)c(C)c(S(=O)(=O)N2CCN(CC(=O)c3c(N)n(Cc4ccccc4)c(=O)n(C)c3=O)CC2)c1C
-11% | Cc1ccccc1OCC(=O)NC(=S)Nc1ccc(N2CCOCC2)c(Cl)c1
-1% | Cc1cccc(C)c1-c1ccc(CN2C(CC(C)C)C(=O)N(Cc3cn(CC4CCCCC4)nn3)CCS2(=O)=O)cc1 (stereo not drawn)
-10% | O=C(COC(=O)CCSc1ccccc1Cl)Nc1ccc(F)cc1F
-14% | CCCCCCCNC(=O)C1(CC2CC(c3ccc(Cl)cc3)=NO2)CCN(C(=O)c2ccccc2)CC1 (stereo not drawn)
3% | CCC1CCCCN1C(=O)Cn1c(=O)n(CCC(=O)NCc2ccco2)c(=O)c2sccc21 (stereo not drawn)
-9% | COc1ccc(CCNc2nc3c(c(=O)n(C)c(=O)n3C)n2Cc2ccccc2Cl)cc1OC
26% | CC(C)(C)n1ncc2c(=O)n(CC(=O)NCCc3ccccc3)cnc21
-19% | CC(C)C[C@H](NC(=O)c1[nH]cnc1C(=O)N[C@H](C)c1ccccc1)C(=O)OCc1ccccc1
-7% | COc1ccc(C#Cc2c(-c3ccc(OC)cc3)oc3ccc(-c4ccc(OC)cc4)cc23)cc1
-14% | COCCNC(=O)c1ccc2c(=O)n(CCCN3CCCC3=O)c(=S)[nH]c2c1
-4% | O=c1c2ccccc2nnn1CCN1CCOCC1
11% | COc1ccc(-n2nc(C(=O)NCC(=O)NCCc3ccc(OC)c(OC)c3)c3ccccc3c2=O)cc1Cl
4% | CC(C)(C)OC(=O)NCCCCCc1nnc(SCc2c(F)cccc2Cl)o1
27% | Cc1ccc2cc(C#N)c(SCC(=O)NCC3CCCO3)nc2c1 (stereo not drawn)
-12% | Cc1cnc(C(=O)OCC(=O)Nc2cc(Cl)cc(Cl)c2)cn1
-9% | Nc1[nH]ncc1-c1ccccc1
0% | O=C(c1cc2c(ccc3ccccc32)oc1=O)N1CCN(CCO)CC1
-4% | C1CCN(c2c3c(nc4nnnn24)CCCC3)CC1
1% | Cc1ccccc1N=C1NN=C(c2ccccc2F)CS1
-4% | CCN1CCN(S(=O)(=O)c2ccc(Cl)c(C(=O)NCc3nc4ccccc4[nH]3)c2)CC1
1% | O=C(NS(=O)(=O)Nc1ccc(Cl)cc1)c1c[nH]c2ccccc12
-8% | COc1ccc(OCC(=O)N/N=C/c2ccc(OC)c(OC)c2C(=O)O)cc1
8% | Cc1ccc(/C=N/NC(=O)c2cc(-c3ccc(C)o3)[nH]n2)cc1
4% | Cc1[nH]nc2c1C1(CCC3(CC1)OCCO3)C(C#N)=C(N)O2
-29% | Cc1ccc(S(=O)(=O)NNC(=O)c2cc([N+](=O)[O-])c(C)c([N+](=O)[O-])c2)cc1
6% | CC(Sc1nc2ccccc2c(=O)n1CC1CCCO1)C(=O)NC(C)c1ccccc1 (stereo not drawn)
-5% | COCCSc1ccccc1C(=O)N1CCN(Cc2ccc3c(c2)OCO3)CC1
-11% | Cc1ccccc1C(=O)NC1CCN(C(=O)N(c2ccccc2)c2ccccc2)CC1
2% | CCOC(=O)c1sc(=NC(=O)c2cccc(C)c2)n(C)c1C
-16% | CC(CNS(=O)(=O)c1ccc2c(c1)NC(=O)CCS2)c1ccccc1 (stereo not drawn)
-26% | Fc1ccc(-[n+]2nc(Nc3ccccc3)sc2-c2cccc(Cl)c2Cl)cc1
-17% | CCN1c2ccccc2-c2nc3ccccc3n2C1c1ccccn1 (stereo not drawn)
-5% | COc1ccc(C(=O)NNC(=O)C(=O)Nc2cccc3ccccc23)cc1
-2% | Cc1cc(=O)oc2c(CN3CCCC3)c(O)c(Cl)cc12
1% | CCCCNC(=O)c1ccc(CNS(=O)(=O)c2ccc(Br)cc2)cc1
2% | Nc1cc(N)nc(SCC(=O)NC2CCCCCCC2)n1
-11% | O=C(Cc1ccc(F)cc1)Nc1nccs1
9% | CC(C)NC1(C(N)=O)CCNCC1
3% | O=C(COc1ccc(S(=O)(=O)N2CCCC2)cc1)NCc1ccccn1
7% | CCN(CC(=O)Nc1c(F)cccc1F)C(=O)CSc1nc(C)cc(C)n1
0% | Cc1ccc(NC(=O)COC(=O)CC2CC3CCC2C3)cc1S(=O)(=O)N1CCOCC1 (stereo not drawn)
9% | O=C(NC1=NCCS1)c1cccc(Br)c1
2% | O=C(NCc1ccco1)C(=O)NCC1OCCN1S(=O)(=O)c1cc(F)ccc1F (stereo not drawn)
-27% | CC(C)[C@H](NC(=O)OCc1ccccc1)C(=O)OCC(=O)N1CCN(c2ccc(F)cc2)CC1
-11% | COc1ccc(C2C(C(=O)c3sc(C)nc3C)=C(O)C(=O)N2CCCn2ccnc2)cc1OC (stereo not drawn)
0% | O=C(Nc1nc2c(Cl)ccc(Cl)c2s1)C1CC1

Carrying on:
VDR inhibitor | Structure
0% | CCOc1ccc2[nH]c(C)c(CN3CCN(C)CC3)c(=O)c2c1
-19% | Cc1ccc(/C=C/C(=O)OCc2nc(N)nc(Nc3ccccc3C)n2)o1
3% | CC(C)(C)C(=O)NC1CCN(C(=O)N2CCCC2)CC1
-25% | COc1ccc(C(=O)CN2CCN(S(=O)(=O)c3cccc([N+](=O)[O-])c3)CC2)cc1
14% | CC(Cl)C(=O)NNc1cccc(Cl)n1 (stereo not drawn)
? | CC(NC(=O)c1sc2cc([N+](=O)[O-])ccc2c1Cl)C(C)(C)C (stereo not drawn)
1% | CC(C)Nc1nc(Cl)nc(Nc2ccccc2)n1
-1% | CCCCCn1c(=O)[nH]c2c(c1=O)CCC2
-15% | CCO/N=C(/C)c1c(O)cc(C(C)(C)C)n(-c2ccccc2)c1=O
2% | CCOc1ccc(N2C(=O)CC(Sc3nnnn3-c3ccccc3)C2=O)cc1 (stereo not drawn)
-16% | COc1cc(NC(=O)C2Cc3ccccc3CN2S(C)(=O)=O)cc(OC)c1 (stereo not drawn)
-2% | Cc1ccccc1CNC(=O)c1ccc2c(c1)N(Cc1ccccc1)CCS2
5% | COC(=O)c1cc(COc2ccc3c(c2)oc(=O)c2ccccc23)c(C)o1
-3% | CCN(CC(=O)NCc1cccs1)S(=O)(=O)c1c(F)cccc1F
-1% | COc1cc(C(=O)OCC(=O)Nc2ccc(N3CCOCC3)cc2)ccc1OCC(C)C
-12% | C[C@H]1CC[C@]2(O[C@H](CCO)C[C@H](O)[C@H]2O)O1
18% | O=C(CSc1cccc2cccnc12)NCc1ccco1
-2% | O=C(COc1ccccc1Cl)NC(=S)Nc1cccc(NC(=O)c2ccccc2Cl)c1
0% | O=C(CN1C(=O)NC2(CCCCC2)C1=O)Nc1ccccc1Cl
-33% | Cc1nc2c(C)cccc2c(SC(=N)N)c1CC=C(Cl)Cl
-5% | Cc1cc(N2C3CCC2CC(O)(c2ccc(F)cc2)C3)nc(-c2ccccc2)n1 (stereo not drawn)
